# Source: PubChem BioAssay
# Ecoli growth = blocks Escherichia coli growth. OD600, 23 h; stronger effect = lower value. OD600 absorbance (test concentration not listed). actives 0.21% (n = 330,000);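 active means OD600 absorbance below the run mean of sample wells minus 3.6 SD, in any replicate, cut at about 0.56 in these data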;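 further: stock transfer was 300 nL into about 60 µL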
# Vif TR-FRET = inhibitors of Vif binding to APOBEC3G peptide, primary screen, biochemical, TR-FRET, GST-Vif 1-94, biotin-A3G peptide, dose response retest (AID 1117319). TR-FRET GST-Vif / biotin-A3G peptide binding; higher % means a stronger effect; test concentration not given here; strong numbers were not always called active. one-dose inhibition, %; IC50 in µM for titrated hits. actives 0.57% (n = 260,000);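 active means above the screen mean plus three standard deviations and confirmed in dose response; inconclusive means results disagree or hit not tested in dose response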;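 further: Vif residues 1-94 fused to GST binding biotinylated APOBEC3G peptide 110-148; 0% = full assay without inhibitor and 100% = GST in place of GST-Vif; retest series ran down from 100 µM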
# HNF4A DNA FP = change in binding of human HNF4 alpha to DNA; P41235; HNF4a-FITC DNA binding, fluorescence polarization, 1 h; activity change, % at 10 µM; actives 0.3% (n = 360,000); AID 1224865; in the data active means activity change above about 30%, passing the limit was not always enough;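 further: controls were the assay level and a saturating level of protein; the project sought stronger binding though the title names inhibitors; some compounds called inactive have numbers as strong as hits; positive values seem to mean higher polarization but the record does not say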
# FGF22 binding = FGF22 (human) thermal shift binding | recombinant FGF22 thermal shift, SYPRO orange fluorescence; percent of sucrose octasulfate shift, DMSO zero | AID 651658 | Q9HCT0 | actives 1.5% (n = 340,000) | calls only at 9.99 µM;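 active means melting point raised past a set limit in the mean and every replicate; inconclusive means no clear call; three in four hits are not shown here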
# Target sequence (Q9HCT0 whole entry, looked up): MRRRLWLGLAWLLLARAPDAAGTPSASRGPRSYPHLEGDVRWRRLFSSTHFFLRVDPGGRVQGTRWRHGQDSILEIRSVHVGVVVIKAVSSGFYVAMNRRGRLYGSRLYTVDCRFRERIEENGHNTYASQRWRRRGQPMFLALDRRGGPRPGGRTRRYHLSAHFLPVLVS
# AF4-AF9 inh = inhibitors of human MLL-AF4/AF9 interaction | AlphaScreen, biotin-AF4 peptide binding to FLAG-AF9 | inhibition, % at 10 µM | actives 0.47% (n = 350,000) | AID 651704;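 active means every replicate reaching a set inhibition limit, whatever the replicate mean, cut at about 25% in these data; inconclusive means mean inhibition reaches that limit but some replicates miss it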;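 further: 0% = plate neutral control median and 100% = total signal loss; the record names both 10 and 1 µM as test concentration; the first replicate is given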
# Target sequence (P42568 whole entry, looked up): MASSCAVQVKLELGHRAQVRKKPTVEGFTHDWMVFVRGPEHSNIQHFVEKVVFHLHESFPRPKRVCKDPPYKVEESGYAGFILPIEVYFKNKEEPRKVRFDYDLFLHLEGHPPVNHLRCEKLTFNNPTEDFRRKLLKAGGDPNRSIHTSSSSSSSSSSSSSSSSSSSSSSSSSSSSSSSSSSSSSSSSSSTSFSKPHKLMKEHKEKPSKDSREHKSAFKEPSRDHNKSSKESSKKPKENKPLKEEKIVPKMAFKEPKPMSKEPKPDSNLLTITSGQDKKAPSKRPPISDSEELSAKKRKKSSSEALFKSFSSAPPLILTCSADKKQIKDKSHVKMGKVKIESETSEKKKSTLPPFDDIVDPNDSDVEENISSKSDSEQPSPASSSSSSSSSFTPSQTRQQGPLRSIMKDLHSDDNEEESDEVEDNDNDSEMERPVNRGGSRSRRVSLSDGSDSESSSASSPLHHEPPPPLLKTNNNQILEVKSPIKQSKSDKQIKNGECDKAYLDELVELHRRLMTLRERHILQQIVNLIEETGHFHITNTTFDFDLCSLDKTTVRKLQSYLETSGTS
# ALR inh = inhibitors of human sulfhydryl oxidase ALR; inhibition, % (concentration not given with the values); P55789; actives 3.8% (n = 290,000); purified ALR, DTT oxidation, H2O2 HRP-luminol luminescence;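 active means mean and each replicate at 75% or more; inconclusive means only one of the two met; inactive means neither met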;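 further: stock transfer was 7.5 nL into about 7.5 µL; 0% = neutral wells and 100% = wells with inactivated enzyme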
# Target sequence (P55789 whole entry, looked up): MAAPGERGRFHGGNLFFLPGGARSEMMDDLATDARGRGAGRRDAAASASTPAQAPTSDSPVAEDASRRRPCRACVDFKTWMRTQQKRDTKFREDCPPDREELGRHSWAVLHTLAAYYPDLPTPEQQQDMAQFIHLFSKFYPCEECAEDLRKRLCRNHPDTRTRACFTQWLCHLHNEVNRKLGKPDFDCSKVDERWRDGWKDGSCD
# Ecoli rRNA inh = selective bacterial rRNA inhibition in E. coli; E. coli WT GFP vs humanized-ribosome RFP mutants, fluorescence, 24 h; stronger effect = lower value; DMSO median 0, no signal -100; GFP signal change (wild-type ribosome), % (no concentration beside the values); actives 1.6% (n = 350,000); AID 720706;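 active means significant combined selectivity score with lowered wild-type GFP, culture density cut under 30%, mutant RFP and density less affected; inactive means any of these conditions unmet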; further: one replicate is shown; some compounds called inactive have numbers as strong as hits
# Ecoli rRNA inh OD600 = also measured in Ecoli rRNA inh; calls as there; OD600 change, %; measured here: OD600 growth;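 optical density of the mix in the first replicate; 0 = DMSO median and -100 = no signal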
# Ecoli rRNA inh RFP = second read-out of Ecoli rRNA inh, no call of its own (marks repeat the call); RFP signal change, %; measured here: RFP humanized mutant strains;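 first replicate; 0 = DMSO median and -100 = no signal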
# Active calls of the source: *; i = inactive; ? = inconclusive; . = no result given. Not all compounds are listed. The share of hits here may be higher or lower than overall.
SMILES,Ecoli growth,Vif TR-FRET,HNF4A DNA FP,FGF22 binding,AF4-AF9 inh,ALR inh,Ecoli rRNA inh,Ecoli rRNA inh OD600,Ecoli rRNA inh RFP
C[C@H](CO)N1C[C@H](C)[C@@H](CN(C)C(=O)NC2CCCCC2)Oc2ccc(NC(=O)CCN3CCOCC3)cc2CC1=O,.,.,.,i,1.6,.,1,12,-2.1
CC1(C(=O)NCc2ccco2)CCN1C(=O)C1(c2ccccc2)CC1 (configuration not stated),.,.,-0.4,i,-1.4,.,8,9,-0.2
O=S(=O)(NCCNS(=O)(=O)c1cccs1)c1cccs1,0.71,29%,1.7,.,.,-12,.,.,.
CCOc1ccc(C(=O)N2CCn3c2nc2ccccc23)cc1,0.68,.,2.8,i,-16,-4,5,6,0.6
C[C@H]1CN([C@@H](C)CO)C(=O)c2cccc(NC(=O)Nc3ccc4c(c3)OCO4)c2O[C@@H]1CN(C)C(=O)NC1CCCCC1,.,.,.,i,-0.2,.,-2,1,-2.3
CCN(C(=O)COC(=O)CCCOc1ccccc1)c1c(N)n(Cc2ccccc2)c(=O)[nH]c1=O,0.66,-1%,-2.3,i,-0.1,-6,.,.,.
CCCCn1c2nc3ccccc3nc2c2c(=O)n(CC(C)C)cnc21,0.69,.,-1.9,i,-2.5,.,4,-2,-5.6
Cc1ccc(S(=O)(=O)N(C)C[C@H]2Oc3c(NC(=O)C4CCCCC4)cccc3C(=O)N([C@@H](C)CO)C[C@@H]2C)cc1,.,.,.,i,2.4,.,-4,-8,0.6
O=C(C1CCCN(S(=O)(=O)c2cccc3nsnc23)C1)N1CCCCCC1 (configuration not stated),0.7,-14%,-1.9,i,0.8,2,-1,-6,-5.0
Cc1ccccc1N1CC(C(=O)Nc2ccc(S(=O)(=O)NCC3CCCO3)cc2)CC1=O (configuration not stated),0.67,-3%,2.4,i,-15,-1,2,5,0.3
CC1=CCC[C@@H]2[C@]3(CC/C(=C/CO)CO)CO[C@@]2(C1)[C@@H](O)C[C@H]3C,.,.,0.9,i,4.7,.,.,.,.
Cc1cc(C)n2nc(C(=O)OCCOc3ccc(Br)cc3)nc2n1,0.66,0%,3.1,.,.,-5,.,.,.
COCCN(C(=O)COC(=O)CCOc1ccccc1C)c1c(N)n(Cc2ccccc2)c(=O)[nH]c1=O,0.73,1%,0.5,i,-0.8,12,-7,0,-3.2
COc1ccc(S(=O)(=O)Nc2ccc3c(c2)C(=O)N([C@@H](C)CO)C[C@@H](C)[C@H](CN(C)Cc2ccncc2)OCCCC[C@@H](C)O3)cc1,.,.,.,i,-1.9,.,-4,1,-0.6
COc1ccc2[nH]c3c(c2c1)CCN1C(=O)C(CC(=O)NCCCN(C)C)C[C@H](C(=O)N2CCCCC2)[C@@]31C (some centres not stated),0.7,2%,-3.4,i,0.0,.,2,9,-5.2
CCCCNC(=O)C1(C)CCN1Cc1ccc(C(=O)OCC)cc1 (configuration not stated),.,.,1.5,i,-2.8,.,-3,-5,-1.8
O=C(O)C1Sc2[nH]c(=O)sc2C2c3ccc(O)cc3OC(=O)C12 (configuration not stated),.,-1%,-5.8,i,-7.0,68,35,-1,18
CC(C)CCNC(=O)C(c1ccco1)N(Cc1ccccc1)C(=O)c1snc(C(N)=O)c1N (configuration not stated),0.68,32%,2.8,i,12,.,-21,-33,0.7
COc1ccc(CNC(=O)CSc2cc(=O)n(C)c3ccccc23)cc1,0.71,-2%,0.6,i,-1.5,1,-14,-11,1.9
CC(C)COc1ccc(CNC(=S)NCc2ccccc2)cc1,0.63,6%,3.5,.,.,-4,.,.,.
COc1ccc(Cn2c(-c3ccc(C)cc3)c[n+]3ccccc23)cc1,0.69,-7%,3.2,i,0.6,-2,-34*,-5.3*,8.6*
Cc1ccc(-n2ncc(C#N)c2/N=C/N2CCN(C)CC2)cc1,.,-4%,-5.0,.,.,-2,.,.,.
O=C(CSc1nnc(-c2cccnc2)n1CCc1ccccc1)NCc1ccccc1,0.76,7%,-1.3,.,.,-1,.,.,.
O=C(CCS(=O)(=O)c1ccc(F)cc1)Nc1ccc(N2CCN(Cc3ccccc3)CC2)cc1,0.67,.,0.8,i,-3.2,-5,9,14,0.1
O=C(Cc1ccccn1)N[C@H]1CC[C@H](CC(=O)N2CCCCC2)O[C@@H]1CO,.,.,.,i,-0.6,.,2,8,-2.7
O=[N+]([O-])c1ccc(NCc2ccc(Cl)cc2)nc1,0.61,-12%,2.8,i,-2.2,11,-44,-58,9.4
CC(C)NC(=O)N(C)C[C@H]1OCCCC[C@@H](C)Oc2ccc(N(C)C)cc2C(=O)N([C@H](C)CO)C[C@H]1C,.,.,.,i,4.5,.,2,6,-0.8
Cc1ccc2nc(SCC(=O)Nc3nonc3C)[nH]c2c1,0.67,.,2.9,i,0.2,-6,-6,-3,2.1
C[C@H]1CN([C@@H](C)CO)C(=O)Cc2cc(NS(=O)(=O)c3ccc(Cl)cc3)ccc2O[C@@H]1CN(C)C,.,.,.,i,-2.7,.,1,-4,0.6
CC1(C(=O)NC2CCCCCCC2)CCC(=O)N1Cc1cccs1 (configuration not stated),0.71,-3%,-0.7,.,.,-8,.,.,.
COc1ccc(S(=O)(=O)N2CCCc3nc(C)c(C)cc32)cc1,.,.,.,i,-0.2,.,-15*,-17*,1.4*
CC(C)N(C(=S)Nc1cccc(S(=O)(=O)N(C)C)c1)c1ccccc1,0.62,3%,1.8,i,9.9,14,2,8,0.0
COc1cc(OC)cc(C(=O)OCC(=O)Nc2cccc(C(C)=O)c2)c1,0.67,4%,1.0,i,0.9,-16,-1,-10,-2.4
CCc1cc2c(NCc3ccco3)ncnc2s1,0.68,3%,-2.5,.,.,9,.,.,.
CCCCN(C(=O)CCNC(=O)NC12CC3CC(CC(C3)C1)C2)c1c(N)n(CCC)c(=O)[nH]c1=O,0.65,-4%,-1.3,i,-10,6,-2,4,-0.6
COc1cccc(S(=O)(=O)N2CC3(CN(C(=O)Nc4ccc(F)cc4)[C@H](CO)c4[nH]c5cc(OC)ccc5c43)C2)c1,.,.,.,i,1.3,.,0,-8,1.6
COc1ccc(/C=N/NC(=O)c2cccnc2)cc1CN1CCOCC1,.,?,3.1,i,0.9,-15,26,5,0.6
Cc1ccc(NC(=O)c2c3c(nc4ccccc24)CCC3)cc1S(=O)(=O)N(C)C,0.73,27%,-9.6,i,2.2,1,0,-3,5.9
Cc1sc2ccccc2c1CNC[C@H]1O[C@@H](n2cnc3c(N)ncnc32)[C@H](O)[C@@H]1O,0.71,-1%,2.8,i,-7.1,.,2,0,-1.3
CCCN(CCC)CC(O)Cn1cc(/C=C/C(=O)c2cccs2)c2ccccc21 (configuration not stated),0.66,-13%,19,i,-1.8,-6,9,-8,19
CCn1c(C)nc2cc(C(=O)NNC(=S)Nc3ccc(Cl)cc3)ccc21,0.62,?,-2.6,i,-20,87*,-6,-12,3.8
O=C(Nc1ncc2c(n1)-c1ccccc1CC2)c1ccc(Cl)cc1,0.71,1%,3.3,.,.,-34,.,.,.
C[C@H](CO)N1C[C@H](C)[C@@H](CN(C)S(=O)(=O)c2ccc(F)cc2)Oc2ccc(NC(=O)Nc3ccc4c(c3)OCO4)cc2C1=O,0.69,0%,0.5,i,8.9,.,3,0,5.3
CCCNC(=O)N1C[C@H](C)[C@H](OC)CN(C)C(=O)c2ccc(NC(=O)CC)cc2OC[C@H]1C,.,.,.,i,-10,.,-1,6,0.1
CC1CCc2c(sc(NC(=O)c3ccco3)c2C(=O)O)C1 (configuration not stated),0.65,.,-0.6,i,-1.4,17,0,-48,-5.6
Cc1ccc(Cl)cc1NC(=O)C(Cc1ccccc1)N1C(=O)C2C3CCC(C3)C2C1=O (configuration not stated),0.69,-1%,-2.4,.,.,-4,.,.,.
Cc1ccc(/C=N/NC(=O)c2sccc2OCc2ccc(F)cc2)cc1,.,0%,-0.6,.,.,38,.,.,.
O=C(c1ccccn1)N1CC2(C1)[C@H](c1ccccc1)[C@@H](CO)N2C(=O)C1CC1,.,.,.,i,1.6,.,-1,3,-4.6

# Quoted from above (four entries):
SMILES,Ecoli growth,Vif TR-FRET,HNF4A DNA FP,FGF22 binding,AF4-AF9 inh,ALR inh,Ecoli rRNA inh,Ecoli rRNA inh OD600,Ecoli rRNA inh RFP
CC1CCc2c(sc(NC(=O)c3ccco3)c2C(=O)O)C1 (configuration not stated),0.65,.,-0.6,i,-1.4,17,0,-48,-5.6
Cc1ccc(Cl)cc1NC(=O)C(Cc1ccccc1)N1C(=O)C2C3CCC(C3)C2C1=O (configuration not stated),0.69,-1%,-2.4,.,.,-4,.,.,.
Cc1ccc(/C=N/NC(=O)c2sccc2OCc2ccc(F)cc2)cc1,.,0%,-0.6,.,.,38,.,.,.
O=C(c1ccccn1)N1CC2(C1)[C@H](c1ccccc1)[C@@H](CO)N2C(=O)C1CC1,.,.,.,i,1.6,.,-1,3,-4.6

# Later entries
SMILES,Ecoli growth,Vif TR-FRET,HNF4A DNA FP,FGF22 binding,AF4-AF9 inh,ALR inh,Ecoli rRNA inh,Ecoli rRNA inh OD600,Ecoli rRNA inh RFP
Cc1ccc(-n2nnnc2SCC(=O)NC(C(=O)O)(c2ccccc2)c2ccccc2)cc1C,0.72,-3%,2.0,i,-0.9,63,1,6,-1.4
CSc1ccc(CNC(=O)C(C)n2nc(C)c3c(C)n(-c4ccccc4)nc3c2=O)cc1 (configuration not stated),0.69,.,2.4,i,-2.5,-5,-9,-8,0.5
COc1ccc([N+](=O)[O-])cc1N1C(=O)c2cccc3cccc(c23)C1=O,0.7,?,-1.0,i,2.8,-6,-15,-17,-2.9
Cc1nc(-c2ccc(C#N)cc2)cs1,0.62,0%,-0.9,i,-4.6,3,.,.,.
COC(=O)c1sccc1NC(=O)c1csc2c1CCCC2,0.75,1%,-0.9,i,1.3,-4,-25,-25,-3.3
Cc1cc(C)c2nc(N)sc2c1,0.68,-6%,0.2,.,.,-4,.,.,.
CCOC(=O)c1c(S(=O)(=O)Nc2ccc(CN3CCC(C)CC3)cc2)c(C)n(C)c1C,0.7,.,0.4,i,-3.2,-9,5,8,-1.8
O=C(NCc1ccccc1)c1ccc2nnsc2c1,0.69,0%,0.3,i,.,-15,2,6,1.9
COc1ccc(CC(=O)N2CCCc3ccccc32)cc1OC,0.73,19%,-0.1,.,.,-14,.,.,.
Cc1c(C(=O)O)sc2nc(/C=C/c3cccc(F)c3)[nH]c(=O)c12,0.66,-1%,-2.8,i,?,11,4,6,9.9
CC(=O)Nc1ccc(NC(=S)NC(=O)c2oc3ccccc3c2C)cc1,0.73,10%,5.3,.,.,-2,.,.,.
CC(C)NC(=O)N1[C@H](C#N)[C@H](c2ccc(C#CC3CCCCC3)cc2)[C@H]1CO,.,.,.,i,-5.7,.,2,-2,0.9
CCOc1cc(N2CCOCC2)c(OCC)cc1NC(=O)CSc1ncccc1C(=O)O,0.72,-1%,0.9,i,1.9,-8,-2,11,3.1
COc1ccc(C(=O)Nc2n[nH]c(-c3ccncc3)n2)cc1,0.67,12%,0.0,.,.,-3,.,.,.
CCCCCCn1c(C(C)O)nc2ccccc21 (configuration not stated),0.77,10%,3.4,.,.,-1,.,.,.
COc1cc2c(cc1OC)/C(=C/c1ccc(Cl)cc1)C(=O)OC2,0.68,4%,-1.0,.,16,.,.,.,.
CCN(CC)c1ccc(NC(=O)c2cc(OC)cc(OC)c2)c(C)c1,0.66,0%,-3.3,.,.,.,.,.,.
COc1cc(CNc2cccc3c2S(=O)(=O)N([C@H](C)c2ccccc2)C[C@@H](COCc2ccccc2)O3)cc(OC)c1OC,.,.,.,i,-1.4,.,10,10,2.8
